PrP 5UTR inh: inhibition of PrP 5' UTR reporter expression | cell-based PrP 5' UTR mRNA reporter, plate reader | actives 0.35% (n = 340,000) | AID 488862 | inhibition, % (test concentration not listed);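 active means every replicate at 50% or more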;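 further: 0 = median of the neutral control wells; tested in H4 reporter cells; numbers are from one replicate; inactives centre near -14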
Bead autofluor: flagged as autofluorescent in microsphere protease counterscreen; compound autofluorescence counterscreen, microsphere flow cytometry; hits give high values; fluorescence intensity (concentration not given with the values); actives 3.1% (n = 360,000);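 active means at least 3 SD above the mean of all compounds, about 16000 in these data; inconclusive means too few beads counted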;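 further: 100 nL of 1 mM stock went into each well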
BJeLR viability: kills HRASV12-expressing BJeLR cells. inhibition, % (concentration not given with the values). BJeLR (HRASV12) viability, CellTiter-Glo ATP luminescence, 48 h; reference of the scale not given here. actives 0.17% (n = 300,000);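 active means replicate mean above 50%; inconclusive means above 50% but judged a plate artefact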;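 further: 50 nL library stock added to about 25 µL; numbers are from one replicate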
Mtb hypoxia inh: Mtb hypoxia fluorescent reporter inhibition | actives 0.1% (n = 300,000) | M. tuberculosis hypoxia-regulated fluorescent reporter, fluorescence | AID 1159583 | fluorescence inhibition, % (no concentration beside the values);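 active means 35 to 45% if threefold the growth effect, above 45% if 1.5-fold the growth effect; inactive means the rest, general growth blockers included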;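 further: wells of about 50 µL received 100 nL stock; 0% = vehicle wells and 100% = reference inhibitor wells; whole bacteria with a GFP reporter of the hypoxia response; strong numbers were not always called active; many hits fall short of the cut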
RN4220 kill: S. aureus RN4220 growth inhibition. OD600, 16 h. inhibition, % (concentration not given with the values). actives 0.33% (n = 330,000);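 active means z-score of -3 or lower and OD600 up to 0.18 on both plates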;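 further: plate controls were untreated cells for no effect and reference antibiotic for full effect; stock transfer was 100 nL into about 80 µL; one replicate is shown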
Sa ugtP lethal: compounds lethal to S. aureus RN4220 ugtP deletion mutant | OD600 growth, 16 h; some inactives read as strong as hits | growth inhibition, % (test concentration not listed) | actives 0.54% (n = 330,000) | AID 1259309;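 active means z-score under -3 and OD600 up to 0.15 on both plates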;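 further: plate controls were untreated wells for no effect and antibiotic for full effect; wells of about 80 µL received 100 nL stock; the first replicate is given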
Mtb hypoxia inh growth: recorded beside Mtb hypoxia inh, whose call it bears; growth inhibition, %; measured here: M. tuberculosis growth (absorbance);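 0% = vehicle and 100% = reference antibiotic; read after six days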
Numbers without * were called inactive; ? = inconclusive; · = no result given.

Short keys – A = PrP 5UTR inh; B = Bead autofluor; C = BJeLR viability; D = Mtb hypoxia inh; E = Mtb hypoxia inh growth; F = RN4220 kill; G = Sa ugtP lethal
> CCN(CC(=O)Nc1ccccc1OC)C(=O)COc1ccc2ccccc2c1
  A: -11; B: 10849; C: -21; D: 2; E: 7; F: 12; G: 8

> Cc1ccc(Cn2cc(C=NNc3ccc([N+](=O)[O-])cn3)c3ccccc32)cc1
  A: ·; B: ·; C: ·; D: 16; E: 11; F: -7.2; G: -20

> Cc1ccc(S(=O)(=O)N2CCOC2CNC(=O)C(=O)NCCCc2ccccc2)cc1 (configuration not stated)
  A: -16; B: 4172; C: -7; D: 10; E: -4; F: -0.3; G: 11

> Cc1cc(C)cc(OCC(=O)OCC(=O)c2c(N)n(C)c(=O)n(C)c2=O)c1
  A: 12; B: 2048; C: -8; D: -3; E: -7; F: 1.8; G: -3

> CC(C)(C)NC(=O)C1CC(=O)OC12CCCCC2 (configuration not stated)
  A: -22; B: 2844; C: -2; D: 10; E: 6; F: 4.2; G: 0

> CC(=O)NC(CC(=O)Nc1nc(-c2ccc(N(C)S(C)(=O)=O)cc2)cs1)c1ccccc1 (configuration not stated)
  A: 9; B: 3925; C: 1; D: -4; E: 8; F: 0.9; G: 3

> Cc1ccc(/C=C2\C(=O)NC(=S)N(c3ccc(F)cc3)C2=O)s1
  A: -19; B: 4395; C: 6; D: 5; E: 9; F: 8.9; G: 13

> O=C(NCCOC(=O)c1ccccc1)c1ccc([N+](=O)[O-])cc1
  A: -8; B: 3526; C: -3; D: 3; E: 0; F: 2.4; G: 2

> CCCCN(Cc1cc2ccccc2[nH]c1=O)C(=O)c1ccccn1
  A: -22; B: 3243; C: -3; D: 3; E: 3; F: 5.7; G: -5

> CC(=N)C1=C(O)CC(c2ccccc2)CC1=O (configuration not stated)
  A: -13; B: 3676; C: -10; D: 1; E: 10; F: -0.2; G: 2

> CCCc1cc(=O)[nH]c(SCC(=O)N2CCCC2=O)n1
  A: -13; B: 6095; C: -2; D: 5; E: 2; F: 1.0; G: 1

> COc1ccc(CNC(=O)CCS(=O)(=O)c2ccc3c(c2)CCN3C(C)=O)cc1
  A: -5; B: 5074; C: -4; D: 11; E: 4; F: 2.9; G: 1

> COc1ccc(C(C)=NNc2ncc(Cl)cc2Cl)c(O)c1
  A: ·; B: ·; C: ·; D: 2; E: 4; F: 7.0; G: 9

> Cc1ncoc1C(=O)Nc1ccccc1C(N)=O
  A: -15; B: 23428*; C: 3; D: 13; E: 4; F: 8.5; G: 6

> O=[N+]([O-])c1ccc(NN=Cc2cccc([N+](=O)[O-])c2)cc1
  A: -42; B: 3655; C: ·; D: 4; E: 2; F: -2.1; G: -17

One compound at a time, from the list above:
Results for Cc1ccc(Cn2cc(C=NNc3ccc([N+](=O)[O-])cn3)c3ccccc32)cc1 : PrP 5UTR inh = ·; Bead autofluor = ·; BJeLR viability = ·; Mtb hypoxia inh = 16; Mtb hypoxia inh growth = 11; RN4220 kill = -7.2; Sa ugtP lethal = -20
Results for Cc1ccc(S(=O)(=O)N2CCOC2CNC(=O)C(=O)NCCCc2ccccc2)cc1 (configuration not stated) : PrP 5UTR inh = -16; Bead autofluor = 4172; BJeLR viability = -7; Mtb hypoxia inh = 10; Mtb hypoxia inh growth = -4; RN4220 kill = -0.3; Sa ugtP lethal = 11

(next part)
Short keys – A = PrP 5UTR inh; B = Bead autofluor; C = BJeLR viability; D = Mtb hypoxia inh; E = Mtb hypoxia inh growth; F = RN4220 kill; G = Sa ugtP lethal
> Cc1c(OCC(=O)Nc2cccnc2)ccc2c3c(c(=O)oc12)CCC3
  A: -54; B: 6435; C: -6; D: 8; E: -4; F: 1.9; G: -7

> COCCNC(=O)/C(C#N)=C/c1ccc(OC(=O)c2cccs2)c(OC)c1
  A: -5; B: 4107; C: 28; D: 1; E: 8; F: 1.5; G: 11

> N=c1c(C(=O)NCC2CCCO2)cc2c(=O)n3ccccc3nc2n1Cc1ccc(Cl)cc1 (configuration not stated)
  A: -15; B: ·; C: 4; D: -1; E: -2; F: 4.3; G: 10

> Cc1cc(C=NO)c(C)n1-c1ccc(Br)cc1
  A: ·; B: ·; C: ·; D: 11; E: -6; F: -0.6; G: -9

> Nc1cc(=O)[nH]c(SCC(=O)Nc2nnc(-c3ccccc3)s2)n1
  A: -16; B: 2601; C: -4; D: -9; E: 0; F: 2.8; G: 4

> Cc1ccccc1NC(=O)COC(=O)c1cc(C)n(C2CC2)c1C
  A: -23; B: 3785; C: ·; D: 4; E: 5; F: 3.4; G: 9

> O=C(OCCCc1cc2ccccc2c(=O)o1)c1ccc2c(c1)OCO2
  A: -2; B: 2751; C: ·; D: 1; E: -3; F: 11; G: 8

> CCCCn1c(N)c(N(CCOC)C(=O)COC(=O)COc2ccc(CC)cc2)c(=O)[nH]c1=O
  A: -11; B: ?; C: -11; D: 9; E: 3; F: 5.0; G: 4

> c1ccc2cc(-c3cc4ccccn4c3)ccc2c1
  A: -148; B: 9086; C: 0; D: -2; E: -2; F: 4.7; G: -1

> CCCNC(=O)Nc1cc(S(=O)(=O)CC)ccc1O
  A: -15; B: 3436; C: -1; D: 7; E: 6; F: 2.1; G: 7

> Cc1cc(CNC(=O)CC2C(=O)NCCN2Cc2ccccc2C(F)(F)F)nn1C (configuration not stated)
  A: -19; B: 3300; C: 1; D: 7; E: 7; F: 5.1; G: 8

> CCOC(=O)C1CCN(Cc2cnc(Oc3ccc(OC)cc3)s2)CC1
  A: -21; B: 24024*; C: -12; D: 1; E: -1; F: 0.7; G: 9

> O=C(COC(=O)c1nc(Cl)ccc1Cl)NCc1cccs1
  A: -7; B: 4039; C: 0; D: 3; E: -9; F: 5.8; G: 9

> CCCCSc1nc(N)nc2c1ncn2C1OC(CO)C(O)C1O (configuration not stated)
  A: ·; B: 3624; C: ·; D: -8; E: -12; F: 2.3; G: -6

> COc1ccccc1-c1cc(C(F)(F)F)nc(S(C)(=O)=O)n1
  A: -18; B: 4095; C: -10; D: -4; E: 11; F: 2.1; G: 16

> Cc1oc(-c2cccs2)nc1CN1CCN(C(C)C)C(CCO)C1 (configuration not stated)
  A: -23; B: 4305; C: 8; D: 6; E: 9; F: 0.0; G: 1

> CCC(C)(C)NC(=O)CN(Cc1cccs1)C(=O)CNS(=O)(=O)c1ccc(C)cc1
  A: -12; B: 16739*; C: -3; D: 0; E: 3; F: 3.8; G: -1

> c1ccc(C[C@H]2CNCCN2CCCCC2CCCCC2)cc1
  A: -1; B: 3275; C: 8; D: ·; E: ·; F: ·; G: ·

> O=C(Cn1cccc1)N1CCc2ccccc21
  A: -9; B: 17880*; C: 6; D: -8; E: -6; F: 1.9; G: 7

> CCCCC(=O)NC(=S)Nc1c(C)cc(Br)cc1C
  A: -16; B: 2695; C: 2; D: 4; E: -7; F: -3.5; G: -15

> CC(C)CN(CC(C)C)C(=O)COc1ccccc1C(N)=O
  A: -32; B: 3410; C: 3; D: 1; E: 0; F: 0.2; G: 8

> Cc1ccc(C)c(N(C(=O)Cn2nnc3ccccc32)C(C(=O)NC(C)(C)C)c2ccsc2)c1 (configuration not stated)
  A: -20; B: 8502; C: -3; D: 17; E: 8; F: 6.7; G: 4

> CCCCN(C(=O)c1cccc(-n2cccc2)c1)c1c(N)n(Cc2ccccc2)c(=O)[nH]c1=O
  A: -21; B: ?; C: 3; D: ·; E: ·; F: ·; G: ·

> Cc1cc(C)c(NC(=O)Cn2c(=O)c3cccn3c3ccccc32)c(C)c1
  A: -13; B: 6103; C: -14; D: -6; E: 8; F: 12; G: -4

> COc1ccccc1OCCSc1nnc(CNC(=O)c2ccco2)n1C
  A: 1; B: 3023; C: -3; D: ·; E: ·; F: ·; G: ·

> COc1ccc(Cl)cc1NC(=O)CCN1CCOCC1
  A: -12; B: 3622; C: -1; D: 15; E: 12; F: 3.8; G: 2

> CC1(C)CC(=O)CC(=O)/C1=N\Nc1c(Cl)cc(Cl)cc1Cl
  A: -8; B: 2833; C: -7; D: ·; E: ·; F: ·; G: ·

> CCC1(C)Cc2c(sc3[nH]c(=O)[nH]c(=O)c23)CS1 (configuration not stated)
  A: -23; B: 4452; C: -13; D: ·; E: ·; F: 5.6; G: 2

> COc1cc(/C=N/OCC(=O)NC2CCCCC2C)ccc1OCc1ccc(Cl)cc1 (configuration not stated)
  A: -120; B: 9124; C: 11; D: ·; E: ·; F: ·; G: ·

> CCOC(=O)C1CCN(c2c(N3CCCC(C(=O)OCC)C3)c(=O)c2=O)CC1 (configuration not stated)
  A: -12; B: 4053; C: 3; D: 8; E: 9; F: 1.3; G: 8

> Cc1cc(C)cc(-n2c(O)c(C=NC3CCS(=O)(=O)C3)c3ccccc3c2=O)c1 (configuration not stated)
  A: -1; B: 8228; C: 1; D: -6; E: -2; F: 2.2; G: 1

> Nc1c(N(CCO)C(=O)C2CCCCC2)c(=O)[nH]c(=O)n1Cc1ccccc1
  A: -20; B: 4536; C: 0; D: 6; E: 5; F: 8.2; G: 2

> Cc1cc2c(c(=O)o1)C(CC(C)C)C(C#N)=C(N)O2 (configuration not stated)
  A: -30; B: 2742; C: 3; D: ·; E: ·; F: 0.7; G: -8

> CC(CCc1ccccc1)NCC#N (configuration not stated)
  A: -7; B: 4306; C: 4; D: 11; E: 0; F: 5.4; G: 7

> CNC(CC(C)C)C(=O)NC1C(=O)NC(CC(N)=O)C(=O)NC2C(=O)NC3C(=O)NC(C(=O)NC(C(=O)O)c4cc(O)cc(O)c4-c4cc3ccc4O)C(O)c3ccc(c(Cl)c3)Oc3cc2cc(c3OC2OC(CO)C(O)C(O)C2OC2CC(C)(N)C(O)C(C)O2)Oc2ccc(cc2Cl)C1O (configuration not stated)
  A: -3; B: 5244; C: -3; D: ·; E: ·; F: ·; G: ·

> CC[C@H](C)[C@H](NC(=O)OCc1ccccc1)C(=O)OCC(=O)N1CCN(c2ccc(OC)cc2)CC1
  A: -13; B: 3565; C: ·; D: -1; E: 8; F: 1.9; G: 2

> O=C1c2ccccc2C(=O)N1Cc1nc2ccccc2c(=O)n1CCCN1CCOCC1
  A: -20; B: 9973; C: -1; D: 3; E: -7; F: -1.9; G: -2

> CS(=O)(=O)N(CC(=O)Nc1ccc2c(c1)OCCO2)Cc1ccccc1
  A: -7; B: 21816*; C: 2; D: 4; E: 3; F: 1.2; G: 3

> c1ccc(N2CCN(c3nc(-c4ccccn4)nc4ccccc34)CC2)cc1
  A: -7; B: 3108; C: 0; D: 6; E: 14; F: 3.5; G: -6

> Cc1cc(C)c(S(C)(=O)=O)c(N(C)NC(=O)c2c(F)cccc2F)n1
  A: -89; B: 5072; C: 0; D: 4; E: 4; F: 3.7; G: 5

> O=C(CNC(=O)c1ccco1)Nc1ccc(Br)cc1
  A: -12; B: 3724; C: 5; D: 3; E: 11; F: 0.0; G: 2

> O=C(COC(=O)CNC(=O)c1ccc(Cl)c([N+](=O)[O-])c1)NNC(=O)c1cccs1
  A: 10; B: 5609; C: 5; D: -2; E: 6; F: 1.1; G: 3

> CC1(C)CC2CC(C)(CN2C(=O)c2ccc([N+](=O)[O-])cc2[N+](=O)[O-])C1 (configuration not stated)
  A: -9; B: 4456; C: -10; D: 6; E: 9; F: 11; G: 0

> COc1ccc(CCNC(=O)CNCC2CCCO2)cc1OC (configuration not stated)
  A: -14; B: 9102; C: 2; D: 19; E: 6; F: 2.0; G: 5

> O=C(N/N=C/c1cccs1)c1cc(-c2cccc3ccccc23)n[nH]1
  A: -71; B: 2233; C: -2; D: ·; E: ·; F: ·; G: ·

> Nc1ccc(-c2cn3cccnc3n2)cc1
  A: -24; B: 4610; C: -7; D: -1; E: 12; F: 7.7; G: 0

> O=C(COC(=O)c1ccc(Br)o1)NC12CC3CC(CC(C3)C1)C2
  A: -14; B: 2942; C: ·; D: 5; E: -5; F: 4.3; G: 3

> Cc1cc(C)c2[nH]c(=O)c(C(c3nnnn3CC3CCCO3)N3CCCC(C)C3)cc2c1 (configuration not stated)
  A: -9; B: 11124; C: -19; D: -10; E: -2; F: 1.0; G: -1

> Cc1ccc(C(=O)N/N=C/c2cc(Br)ccc2O)cn1
  A: 14; B: 3622; C: 8; D: ·; E: ·; F: ·; G: ·

> CC(=O)c1cccc(NC(=O)N2CCC(c3ccc(C)cc3)C2)c1 (configuration not stated)
  A: ·; B: 4050; C: -4; D: 1; E: 2; F: 1.9; G: 3

> Cc1ccc(C)c(N(CC(=O)NC2CCCCC2)C(=O)c2snc(C(N)=O)c2N)c1
  A: -19; B: 5476; C: -8; D: 9; E: 2; F: 5.7; G: -4

> C=CCNC(=O)CC(=O)NN=Cc1cccc(C)c1
  A: ·; B: ·; C: ·; D: 3; E: -2; F: 0.9; G: 0

Screens from PubChem.
